# Bioassay records (PubChem BioAssay)
# A1 inh = caspase 3/7 activation in MEF A1-2A-BIM cells, primary screen, A1 inhibitor project, cell-based, luminescence, HTS. 0.066% of 330,000 active. caspase activation, % (concentration not given with the values). Caspase-Glo 3/7 luminescence, 3 h; percent of clofoctol response, vehicle zero;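 active = over half of replicate activation scores above 10%, or exactly half above 10 with the replicate mean above 10; inconclusive = replicate mean below 10 yet half the replicates above 10; inactive = over half of replicates below 10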;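 also: wells of about 30 µL received 50 nL stock; many hits fall short of the cut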
# B2AR ag = beta2AR agonists driving receptor internalization, primary screen, cell-based, FAP fluorogen, flow cytometry; response, % (test concentration not listed); Am2.2-beta2AR cells; reference of the scale not given here; 0.43% of 340,000 active;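 active = response above a set limit, near 3 SD of response in nonfluorescent compounds, cut at about 42% in these data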;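 also: stock transfer was 100 nL into about 11 µL; a reference agonist was the positive control; negative values mostly stem from fluorescent compounds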
# Target sequence (P07550 whole entry, looked up): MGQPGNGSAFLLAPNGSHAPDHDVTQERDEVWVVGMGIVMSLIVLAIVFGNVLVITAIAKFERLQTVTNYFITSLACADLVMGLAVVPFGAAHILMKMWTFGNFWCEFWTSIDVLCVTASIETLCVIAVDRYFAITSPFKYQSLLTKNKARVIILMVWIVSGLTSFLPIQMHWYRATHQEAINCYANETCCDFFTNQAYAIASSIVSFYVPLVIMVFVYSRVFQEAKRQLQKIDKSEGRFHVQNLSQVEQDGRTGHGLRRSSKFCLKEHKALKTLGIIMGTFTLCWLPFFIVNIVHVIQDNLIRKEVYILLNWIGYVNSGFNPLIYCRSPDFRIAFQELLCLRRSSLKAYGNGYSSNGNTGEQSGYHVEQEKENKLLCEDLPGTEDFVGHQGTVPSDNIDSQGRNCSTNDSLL
# LANA-H2A inh = blockers of LANA interaction with H2A/H2B – biochemical, FP readout, HTS, primary screen; Protein LANA1 (Human herpesvirus 8 type P (isolate GK18)), Q9QR71; cell-free LANA-H2A/H2B peptide, fluorescence polarization; inhibition, % (test concentration not listed); 0.6% of 320,000 active; in the data active = inhibition mostly above about 10%, no sharp cut-off; inactive = mostly below about 6.7%;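 also: stock transfer was 7.5 nL into about 10 µL; 0% = median of vehicle wells and 100% = median of positive control wells; one replicate is shown; the record names a cut of 25% in any replicate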
# UCH37 DUB inh = inhibitors of human UCH37 deubiquitinase, primary screen, biochemical, Ub-AMC cleavage, fluorescence | Ubiquitin carboxyl-terminal hydrolase isozyme L5 (Homo sapiens), Q9Y5K5 | purified proteasome/UCH37 | inhibition, % (concentration not given with the values) | 0.33% of 330,000 active;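 active = mean of two replicates above 20%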;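 also: 0% = compound-free wells with enzyme and 100% = wells lacking proteasome; stock transfer was 100 nL into about 20 µL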
# Target sequence (Q9Y5K5 whole entry, looked up): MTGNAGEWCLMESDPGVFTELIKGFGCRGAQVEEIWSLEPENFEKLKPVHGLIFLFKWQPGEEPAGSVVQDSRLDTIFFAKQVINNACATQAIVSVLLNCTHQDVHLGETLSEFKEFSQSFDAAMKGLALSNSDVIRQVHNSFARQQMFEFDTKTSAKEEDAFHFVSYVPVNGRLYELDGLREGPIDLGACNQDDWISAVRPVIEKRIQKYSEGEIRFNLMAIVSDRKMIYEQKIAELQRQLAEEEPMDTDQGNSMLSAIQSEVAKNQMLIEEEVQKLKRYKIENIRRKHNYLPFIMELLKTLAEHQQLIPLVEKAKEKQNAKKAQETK
#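 Assay system: Proteasome-bound UCH37. Buffer or medium: pH 7.4 Tris-HCl (50 mM) with ovalbumin, ATP-MgCl2, DTT. Incubation: 30 min preincubation with enzyme, 25 min cleavage at room temperature. Measured by: fluorescence, ex 355 nm, em 460 nm. Read-out basis: percent inhibition. Control set: wells without proteasome as full block, compound-free enzyme plus substrate as uninhibited.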
# Beta apoptosis = inhibitors of cytokine-induced beta cell apoptosis, primary screen, luminescence; protection from apoptosis, % (test concentration not listed); INS-1E cytokine-induced death, ATP luminescence, 48 h; percent of positive-control rescue, neutral wells zero; 0.8% of 300,000 active;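 active = all replicates at 75% or more, or half of them and the mean; inconclusive = half reach 75% but not the mean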;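 also: 0% = cytokine-treated negative control wells and 100% = positive control rescue; higher means more ATP so stronger rescue from cytokine killing; wells of about 40 µL received 100 nL stock; the first replicate is given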
# Calb FLC = C. albicans growth inhibition with fluconazole, primary screen, CaCi-2 strain, Alamar Blue fluorescence; C. albicans CaCi-2 (fluconazole-resistant clinical isolate) + fluconazole, 48 h; 0.57% of 300,000 active; growth inhibition, % (no concentration beside the values); AID 1979, 2009;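 active = most replicates above 75%; inconclusive = exactly half above 75%; inactive = most below 75%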;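 also: all wells also contain fluconazole at 8 µg/ml as a sub-toxic cotreatment; 0% = median of DMSO wells and 100% = median of geldanamycin control wells; wells of about 8 µL received 7.5 nL stock; the first replicate is given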
# RanGTP-Impb inh = inhibitors of RanGTP-importin-beta interaction, primary screen, biochemical, FRET, CFP-Ran, YFP-importin-beta, homogeneous. Ran GTPase (GTP-bound) - importin-beta complex. cell-free CFP-Ran/YFP-importin-beta FRET ratio. inhibition, % (test concentration not listed). 1.1% of 300,000 active;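 active = most replicates above 15%; inconclusive = exactly half above 15%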;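 also: 0% = DMSO wells and 100% = Ran loaded with GDP instead of GTP; wells of about 40 µL received 100 nL stock; the first replicate is given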
# T cruzi inh = inhibitors of intracellular T. cruzi growth, primary screen, luminescence, NIH3T3 host cells | 1.4% of 300,000 active | inhibition, % (test concentration not listed) | T. cruzi beta-gal in NIH3T3, 90 h;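 active = mean inhibition across valid replicates above about 55%, limit read from the data; inconclusive = mean below that limit but half or more replicates reach it; inactive = mean below it, under half of replicates reach it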;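 also: signal also drops with host cell toxicity which is not excluded here; 0% = plate median of DMSO wells and 100% = zero luminescence signal; higher percent means less beta-gal luminescence so fewer parasites; stock transfer was 50 nL into about 50 µL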
# An asterisk follows results filed as active; ? = inconclusive; . = no result given.
SMILES,A1 inh,B2AR ag,LANA-H2A inh,UCH37 DUB inh,Beta apoptosis,Calb FLC,RanGTP-Impb inh,T cruzi inh
Clc1ccccc1OCCN1CCC(Cc2ccccc2)CC1,1.2,7,-0.5,6.5,-5,14,2.8,29
COc1ccc(N/N=C(C)/C(=N/O)C(=O)Nc2ccccc2)cc1,-3.6,7,-5.8,.,-13,-16,5.8,-13
CC(=O)Nc1cc(C(=O)NCc2ccco2)ccc1Sc1ccc(Cl)cc1,-0.7,4,-3.8,3.4,.,-3,5.9,3
CC1(C)CC(=O)C(CC(=O)Nc2ccc(S(N)(=O)=O)cc2)=C(O)C1,0.6,-1,-0.5,-0.7,-2,-1,-0.9,8
CC(C(=O)Nc1ccc(C#N)cc1)N(C)CC(=O)Nc1ccccc1Br (stereo not given),0.2,1,-2.7,-0.3,6,25,-4.2,19
CCCC(=O)N1CCN(c2nc3ccc(Br)cc3s2)CC1,0.9,-3,4.2,4.0,.,2,-0.1,-13
CN(C)S(=O)(=O)c1ccc(C(=O)Oc2coc(CSc3ncccn3)cc2=O)cc1,0.6,-2,-1.9,-1.5,1,.,.,0
COc1ccc(CN2CC(=O)N(c3cccc(Cl)c3)C2=S)cc1OC,-0.4,4,-6.7,1.3,-10,10,0.5,-4
CN(CCc1cn[nH]c1)C(=O)CC1C(=O)NCCN1Cc1ccccc1C(F)(F)F (stereo not given),-0.2,-2,-3.2,-7.4,-7,-5,0.7,4
Cc1ccc(Cn2c(C(CO)Nc3nc(-c4ccc(Cl)c([N+](=O)[O-])c4)cs3)nc3ccccc32)cc1 (stereo not given),0.7,14,1.9,1.4,-4,22,3.4,9
Cc1cccc(NC2SC(=O)NC2=O)c1 (stereo not given),-0.8,8,-0.7,4.0,-8,3,-1.7,-4
O=C(COC(=O)/C=C/c1ccccc1Cl)Nc1cccnc1Cl,-0.4,-9,-0.2,0.2,-2,.,.,.
Cc1cc(N2CCN(C)CC2)nc2ccc(NC(=O)CCC3CCCC3)cc12,-0.3,15,-5.7,-72,-5,37,1.5,45
Cc1c(CCO)c(=O)[nH]n1C(=O)c1c(F)cccc1F,-1.5,-9,0.9,2.0,-6,-5,6.7,-7
COC(=O)c1ccncc1C(=O)Nc1ccc(OC)cc1,-0.8,1,-1.6,-1.0,-4,?,-1.9,-15
COc1cccc(NC(=O)CSc2ncnc3c2cnn3Cc2ccccc2)c1,-1.4,1,0.8,6.8,-8,-14,-1.4,4
COc1cc(/C=C/C(=O)OCC(=O)NCc2ccccc2OC)ccc1O,0.1,13,-14,-6.4,1,10,-1.5,-2
COc1ccccc1NS(=O)(=O)c1ccc(Cl)c(NC(=O)CN2C(=O)c3ccccc3C2=O)c1,-0.4,1,1.9,-0.5,4,22,1.2,-6
COc1cc(CCC(=O)OCC(=O)Nc2c(C)cc(C)cc2C)cc(OC)c1OC,0.7,-2,-5.8,1.4,2,5,-3.1,-7
O=C(COC(=O)CNS(=O)(=O)/C=C/c1ccccc1)Nc1cc(S(=O)(=O)N2CCCCC2)ccc1Cl,0.3,4,-6.3,1.2,-5,-4,-3.8,-3
CN1C(C(=O)NCc2ccccc2)CC2Cn3c(nc4cc5ccccc5cc43)C21 (stereo not given),-0.3,-3,0.1,2.9,-11,15,4.8,0
CCC(=O)Nc1nnc(SCC(=O)NCCc2ccc(OC)c(OC)c2)s1,0.2,-4,0.2,0.8,-2,0,1.6,-5
CCOC(=O)C1=C(CSc2nncn2C)NC(=O)NC1c1cc(OCC)ccc1OCC (stereo not given),-0.5,-7,-1.6,4.0,-5,0,1.8,-12
CNC(=S)NNC(=O)c1sccc1C,-0.9,-3,-2.2,-3.1,.,-12,-1.3,11
Clc1ccc(SCc2cn3cccnc3n2)cc1,0.0,-21,-6.4,-3.1,-2,-8,-1.3,6
# The list continues.
SMILES,A1 inh,B2AR ag,LANA-H2A inh,UCH37 DUB inh,Beta apoptosis,Calb FLC,RanGTP-Impb inh,T cruzi inh
CCCn1c(=O)c2ccccc2n2c(SC(C)C(N)=O)nnc12 (stereo not given),0.0,3,-0.6,2.0,-7,-2,-5.6,-6
O=C(O)C1Cc2ccccc2CN1S(=O)(=O)c1ccc2ccccc2c1 (stereo not given),0.1,-2,-3.3,1.6,-2,2,-2.5,0
CCOc1ccc(NC(=O)C2CCN(C(=O)N3CCOc4ccccc43)CC2)cc1,0.1,6,1.3,2.0,6,1,3.1,-1
O=C(NCCCNC(=O)c1ccc(-c2cccc(Cl)c2)o1)c1cnccn1,0.4,-10,-2.0,6.9,1,-3,2.9,1
O=S(=O)(NCC1CCCO1)c1ccc(S(=O)(=O)N2CCc3ccccc3C2)cc1 (stereo not given),-0.2,3,6.2,5.0,4,12,-0.4,6
c1ccc(Nc2nc(-c3ccccc3)ns2)cc1,-3.2,-3,3.6,5.2,8,-1,1.9,16
COc1cccc(CN2CCN(C(=O)c3cc(-c4ccccn4)nc4ccc(Cl)cc34)CC2)c1,0.1,2,2.1,1.5,-3,2,0.9,26
Cc1ccc(NC(=O)n2ncc3c(C)cccc32)cc1F,-1.4,-1,7.6,.,-9,-16,-2.9,-8
COc1ccc(C2C(C(=O)OCC(=O)N3CCCCC3)CCC(=O)N2c2ccc(OC)cc2)cc1 (stereo not given),1.0,-5,5.4,4.3,-6,20,0.6,10
CCN(CC)S(=O)(=O)c1ccc(Nc2nc3ccccc3n3nnnc23)cc1,0.4,10,1.1,-20,16,5,3.7,39
Cc1cccc(C(=O)OCC(=O)NNC(=O)c2cccs2)c1O,-0.1,-7,-2.9,-3.4,3,7,-2.3,-9
CCOc1ccc(NC(=O)CSc2nnc(Cc3csc(C)n3)o2)cc1,0.1,4,-3.3,.,3,2,4.2,-5
Cc1c(N=C2NC(=O)/C(=C/c3ccc(O)cc3)S2)c(=O)n(-c2ccccc2)n1C,-0.1,5,0.4,6.4,-1,3,-0.4,8
O=C(C1CCCN(S(=O)(=O)c2cccc3nsnc23)C1)N1CCCCCC1 (stereo not given),1.0,-4,-0.3,5.1,-2,-3,-0.1,-8
CCOC(=O)c1sc(-c2ccccc2)cc1NC(=O)Nc1ccccc1,0.0,9,1.5,-7.6,-1,1,0.0,55*
CC(C)CNc1ncnc2c1sc1nc(N3CCOCC3)c3c(c12)CC(C)(C)OC3,-0.5,-7,-3.2,-2.3,5,-2,0.1,6
COc1ccc(N2CCN(S(=O)(=O)Cc3ccccc3)CC2)cc1,-0.7,8,2.3,0.0,-2,-2,-0.8,-14
CCC(C(=O)OCCOCCN(CC)CC)c1ccccc1 (stereo not given),0.7,-1,-2.6,53,-4,-10,9.1,17
Cc1ccc(S(=O)(=O)Nc2nsc(N)n2)cc1,0.1,3,1.4,2.4,-3,-4,0.3,-5
Cc1ccc(NC(=O)c2ccccc2F)c(NC(=O)c2ccccc2F)c1,0.2,-3,-1.7,4.8,-1,3,4.1,-6
O=C(CC1C(=O)NCCN1Cc1cccc(Oc2ccccc2)c1)NCCc1cscn1 (stereo not given),-0.2,-4,1.6,-1.2,-4,-2,-2.0,10
Cc1cc(C)cc(OC(C)C(=O)Nc2ccccc2C(=O)NCc2cccnc2)c1 (stereo not given),-0.6,2,4.2,0.9,-5,4,-4.2,3
CN(C(=O)COC(=O)c1cnc(Cl)c(Cl)c1)C1CCS(=O)(=O)C1 (stereo not given),-0.8,9,4.9,4.2,-1,-21,?,39
COc1ccc(OCC(=O)NC(=S)Nc2ccc(S(=O)(=O)Nc3cc(C)on3)cc2)cc1,0.1,0,5.2,1.5,2,1,-0.6,-4
Cc1ccc([N+](=O)[O-])c2c1C(N1CCCCC1)C(C)(C)O2 (stereo not given),-0.1,10,-3.8,3.3,4,3,3.9,22

# Individual results from the list:
# COc1ccc(C2C(C(=O)OCC(=O)N3CCCCC3)CCC(=O)N2c2ccc(OC)cc2)cc1 (stereo not given) in B2AR ag = -5
# CC(C)CNc1ncnc2c1sc1nc(N3CCOCC3)c3c(c12)CC(C)(C)OC3 in Beta apoptosis = 5

# (continued)
SMILES,A1 inh,B2AR ag,LANA-H2A inh,UCH37 DUB inh,Beta apoptosis,Calb FLC,RanGTP-Impb inh,T cruzi inh
O=C(Nc1ccccc1)c1cc2ccc3ccccc3c2s1,-2.8,13,-2.4,3.1,0,1,-0.3,18
CC(=O)Nc1ccc2nc(-c3ccncc3)[nH]c2c1,-0.1,-1,-3.7,-94,.,-3,-4.0,-20
O=S(=O)(Nc1ccc(S(=O)(=O)N2CCOCC2)cc1)c1ccccc1,1.1,-1,1.5,-0.5,-8,-1,2.8,-20
CCN(CC)c1ccc(NC(=O)CN2CCN(S(=O)(=O)c3cc(Cl)ccc3OC)CC2)cc1,0.3,6,3.5,3.9,3,-10,0.9,10
Oc1ccc(Br)cc1C=Nc1ccc2c3c(cccc13)CC2,0.6,12,.,3.9,6,-12,-43,-5
CCn1c(CNc2ccc(Cl)cc2)nnc1SCc1ccccc1,-0.4,-3,2.1,-0.6,-2,-9,-1.8,0
CCOC(=O)C(C(=O)OCC)N(C#N)c1nc(N(C)C)nc(N(C)C)n1,1.2,23,-1.1,3.1,-5,?,4.8,-12
CC(=O)c1ccc(S(=O)(=O)NCc2nnnn2-c2ccccc2)cc1,0.8,3,1.1,5.8,-7,-7,0.0,-4
COc1ccccc1OCc1cc(C(=O)NCCN2CCCC(O)C2)no1 (stereo not given),-0.8,5,-2.1,-3.2,-1,1,2.0,-3
COc1ccccc1OCCC(=O)Nc1cccc(S(=O)(=O)N2CCCCC2)c1,0.3,8,.,1.8,-2,0,0.6,0
Cc1ccc(-c2nc3ccccc3c(=O)n2-c2c(C)n(C)n(-c3ccccc3)c2=O)cc1,0.2,-2,2.0,5.0,-6,12,-1.1,1
COCC1CCN(C(=O)C2CCC(=O)N(Cc3cccc(F)c3)C2)CC1 (stereo not given),0.7,1,1.3,3.7,3,-7,-3.5,0
O=C(CN(Cc1ccccc1)S(=O)(=O)c1cccc(C(F)(F)F)c1)NC1CCCCC1,1.2,-36,6.5,0.6,4,1,1.6,11
CC(NC(=O)C1CCCCC1)C(c1cccs1)N1CCN(C)CC1 (stereo not given),0.0,1,-5.1,2.0,-2,-10,?,-10
Cc1occc1C(=O)N1CCN(c2ccccc2)CC1,0.4,1,-1.3,3.3,-6,-3,1.2,4
Cc1ccccc1NC(=O)NCCCN1CCN(C)CC1,-0.4,-33,-0.9,4.4,2,-3,1.9,-13
C[C@H](NC(=O)c1nc[nH]c1C(=O)N1CCNCC1)C(=O)OCc1ccccc1,-0.9,2,2.1,-3.5,8,21,-0.9,-11
COc1ccc(CCNS(=O)(=O)c2cccc([N+](=O)[O-])c2)cc1,-1.6,-1,1.4,1.8,-1,-13,-1.8,-10
